# Bioassay records from PubChem BioAssay.
# ClpP mod: qHTS Assay for Activators of ClpP | ATP-dependent Clp protease proteolytic subunit (Bacillus subtilis (strain 168)), P80244 | purified B. subtilis ClpP, FRET peptide cleavage, 20 min | Potency, µM (series often up to 57.5 µM), without a hit: top-dose activity change, negative = active | 340,000 compounds, 1.9% hits; active = well fitted falling curve with a large enough effect; inconclusive = small, poorly fitted or top-dose-only effect; inactive = no such curve, though single readings can be large or run the other way; further: potency means the concentration at half of the fitted maximal effect; the source files actives as falling curves though it sought activators and does not explain the sign; nearly all actives have a fitted effect of over 65% in size; many hits overshoot -100%
# Target sequence (P80244 whole entry, looked up): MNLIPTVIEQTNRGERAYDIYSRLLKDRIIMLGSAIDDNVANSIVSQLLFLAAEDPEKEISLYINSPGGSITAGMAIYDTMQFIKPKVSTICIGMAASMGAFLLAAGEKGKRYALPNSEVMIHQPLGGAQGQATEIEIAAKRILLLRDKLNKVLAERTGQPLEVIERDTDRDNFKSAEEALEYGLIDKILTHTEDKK
#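 FRET quenching reversal measured ClpP activation: 10 microg/mL B. subtilis ClpP at pH 8 with the FRET-FV decapeptide, read at 430 nm after 320 nm excitation. The 20-min minus 0-min signal was scaled between DMSO/no-enzyme wells and ADEP (5.8 microM final).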
# TRPV1 potentiator: potentiators of human vanilloid receptor 1 (TRPV1) | Q8NER1 | TRPV1-expressing cells, Fluo-8 calcium influx, capsaicin EC20 potentiation; host cell line not named in the record; control for the full effect not named in the record | potentiation, % at 8.33 µM | 320,000 compounds, 0.02% hits; active means potentiation above 80%; inconclusive means 30% to 80%; inactive means below 30%; further: 0% is about no effect
# Target sequence (Q8NER1 whole entry, looked up): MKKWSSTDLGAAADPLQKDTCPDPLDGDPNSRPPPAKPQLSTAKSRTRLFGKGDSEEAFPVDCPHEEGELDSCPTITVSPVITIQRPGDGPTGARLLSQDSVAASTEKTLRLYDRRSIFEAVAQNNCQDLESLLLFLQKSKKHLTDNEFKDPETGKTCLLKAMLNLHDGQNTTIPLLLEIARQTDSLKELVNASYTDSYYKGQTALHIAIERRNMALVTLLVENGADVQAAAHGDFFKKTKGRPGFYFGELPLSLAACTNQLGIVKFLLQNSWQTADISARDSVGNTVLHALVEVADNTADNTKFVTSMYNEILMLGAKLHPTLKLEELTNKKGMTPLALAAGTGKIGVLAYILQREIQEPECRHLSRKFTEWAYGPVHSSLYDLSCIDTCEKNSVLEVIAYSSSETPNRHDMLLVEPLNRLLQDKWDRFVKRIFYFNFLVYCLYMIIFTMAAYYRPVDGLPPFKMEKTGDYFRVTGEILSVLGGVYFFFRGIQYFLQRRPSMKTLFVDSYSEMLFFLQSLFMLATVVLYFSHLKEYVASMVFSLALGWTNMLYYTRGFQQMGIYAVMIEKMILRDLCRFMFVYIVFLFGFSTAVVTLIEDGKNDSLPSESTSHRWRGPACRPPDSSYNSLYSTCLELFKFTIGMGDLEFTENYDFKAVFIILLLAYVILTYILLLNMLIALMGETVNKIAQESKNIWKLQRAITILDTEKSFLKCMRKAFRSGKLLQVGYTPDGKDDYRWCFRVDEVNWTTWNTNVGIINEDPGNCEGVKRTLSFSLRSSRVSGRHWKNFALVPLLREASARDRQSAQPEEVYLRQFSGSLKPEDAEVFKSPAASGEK
#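 Fluo-8 calcium influx in TRPV1-expressing cells, kinetic read (ex 480/em 520 nm). Compound added and read 3 min for agonist activity, followed by capsaicin at EC20 final and 2 min further read for enhancement.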
# gsp antagonist: antagonists of gsp mutant (McCune-Albright syndrome); gsp-mutant cells, cAMP HTRF, 30 min; control for the full effect not named in the record; Potency, µM (series often up to 76.9 µM), inactives show at the highest dose activity change, negative = inhibition, most hits filed as inhibitors; 340,000 compounds, 0.4% hits; active = falling curve of any shape with a large fitted effect; inconclusive = falling curve, mostly with a smaller effect; inactive = flat or rising curve; cell line not stated here;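 further: intracellular cAMP measured with PDE inhibitor Ro 20-1724 present during compound exposure; potency means the concentration at half of the fitted maximal effect; on the % scale 0 is the no-effect control and ±100 the full control effect; nearly all actives have a fitted effect of over 65% in size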
#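 G418-selected cells were plated in DMEM/10% FBS for 16-24 h at 37C, then treated with compounds plus the PDE inhibitor […] (300 uM solution added) for 30 min at 37C. Intracellular cAMP was measured by HTRF after 30 min lysis at room temperature.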
# TRPML1 inh: human mucolipin-1 channel inhibition | Q9GZU1 | activity change, negative = inhibition, % (concentration not given with the values) | 390,000 compounds, 0.02% hits | TRPML1-inducible cells, Ca2+ dye fluorescence, FDSS; stronger effect = lower value; inhibition of EC80 agonist-evoked calcium signal; in the data active means activity change below about -50%; inconclusive means about -30% to -50%; inactive means above about -30%;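 further: stimulus is agonist 54-4 at its EC80 concentration; on the % scale 0 is the no-effect control and ±100 the full control effect; the text of the record puts the active cut at -80%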
#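 TRPML1-DL cells, Tet-induced overnight (~16 h, 37 °C) at 1,500 cells/well, were loaded with Ca8 no-wash dye plus quencher for 45-90 min at room temperature. Compounds were pinned during FDSS kinetic reading; agonist 54-4 at EC80 (4 uM final) then added.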
# gsp ag: activates gsp, the McCune-Albright syndrome mutation; AID 624287; 340,000 compounds, 0.13% hits; Potency, µM (top dose mostly 76.9 µM), without a hit: at the top dose activation (cAMP increase), usual class: activators; gsp mutant cells, cAMP HTRF, 30 min; control for the full effect not named in the record; active = well fitted activation curve with a large enough effect; inconclusive = small, poorly fitted or top-dose-only effect, or another doubt; inactive = no such curve, though single readings can be large or run the other way; cell line not stated here;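 further: phosphodiesterase inhibitor Ro 20-1724 added with compounds to block cAMP breakdown; potency means the concentration at half of the fitted maximal effect; nearly all actives have a fitted effect of over 60% in size; about a fifth of the inactives were tested at one dose only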
#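 Cells in DMEM/10% FBS with G418 were pretreated with compounds in DMSO plus […] (300 uM stock) for 30 min at 37C. cAMP was measured by HTRF (cAMP-d2 plus anti-cAMP antibody-K) after 30 min at room temperature.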
# Menin-MLL FL inh: displaces fluorescein MLL peptide from human menin. Fluorescence polarization, fluorescein-MLL peptide displacement from menin. AID 1766. FP activity change, % at 61.4 µM. 290,000 tested, under 10 active; inconclusive = falling polarisation curve, or a change in total fluorescence; inactive = total fluorescence flat and polarisation flat or rising; no compound was filed as active; the % refers to the polarisation; negative = inhibition;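 further: % of control where 0% means no effect; inhibitors lower the polarisation; unlabelled MLL peptide was the positive control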
# Sfp PPTase inh: inhibitors of Bacillus subtilis Sfp phosphopantetheinyl transferase | Q9F4F7 | Biochemical Sfp PPTase activity, qHTS | Potency, µM, without a hit: max response, negative = inhibition, actives largely listed as inhibitors | 310,000 compounds, 3.5% hits; active means well fitted inhibition curve with a large enough effect; inconclusive means small, poorly fitted or top-dose-only effect, or another doubt; inactive means no such curve, though single readings can be large or run the other way;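 further: the enzyme is Sfp with the accession as filed and its product quenches rhodamine fluorescence; potency means the concentration at half of the fitted maximal effect; 0% = enzyme reaction without inhibitor and -100% = no enzyme wells; top concentration of the series not given in the record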
#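 Buffer: 50 mM Hepes-Na pH 7.6, 10 mM MgCl2, 0.01% Nonidet P-40, 0.01% BSA. Enzyme 15 nM, pre-exposed to compound 15 min; substrates then added and fluorescence change tracked over 30 min.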
# An asterisk follows results filed as active; ? = inconclusive; · = no result given; [ ] = dose if it differs, or a comment. An unsorted share of the library; overall some 4.9% were active at least once.
SMILES,ClpP mod,TRPV1 potentiator,gsp antagonist,TRPML1 inh,gsp ag,Menin-MLL FL inh,Sfp PPTase inh
CC(C)CC(NC(=O)C(NC(=O)OC(C)(C)C)C(C)C)C(=O)N1CCCC1C(N)=O (stereo not given),0.7%,1,-2%,-4,-52%[inhibitor],4.5,18%
CCOC(=O)NC(=O)C(=CNc1ccc(C)cc1)C(=O)NC(=O)OCC,-5.0%,16,-6%,23,-38%[inhibitor],5.3,11%
CCN(CC(=O)Nc1ccc2c(c1)OCO2)CC(=O)Nc1ccccc1C(F)(F)F,0.1%,-19,10%,-7,-7%,·,·
CCOCCCN1C(=O)CN(C2CCCCCC2)C(=O)C1c1ccc(OC)cc1 (stereo not given),-0.4%,-27,-4%,7,16%,-3.0,9%
Oc1ccccc1-c1nc(N2CCN(Cc3ccccc3)CC2)c2ccccc2n1,1.4%,?,7%,10,-9%,2.9,0%
NCCc1nnc(SCc2c(F)cccc2Cl)o1,-0.9%,17,6%,-17,?,2.0,6%
COc1ccc(C2CC(c3ccccc3)=NN2C(=O)CN2CCN(Cc3ccccc3)CC2)cc1 (stereo not given),·,0,·,-12,-5%[15.4 µM],0.2,18%
Cc1ccc(SCC(Cc2ccccc2)N2CCN(CC(C)C)CCC2=O)cc1 (stereo not given),·,·,·,-6,·,3.4,?
Cc1cnc(NC(=O)CSC(=S)N2CCOCC2)s1,·,-6,2%,-8,4%[15.4 µM],-1.3,9%
CN(C)C(=O)c1cc(C(=O)c2ccccc2)c[nH]1,-1.5%,7,0%,3,0%,4.2,0%
Cc1onc(-c2ccccc2Cl)c1C(=O)Nc1ccc(-c2cn3cccnc3n2)cc1,11%,9,-1%,-18,-14%,3.8,-12%
CCOc1ccc(/C=N/NC(=O)C2CC2)c(OCC)c1,-3.2%,-4,-4%,-6,-7%,·,-5%
O=C(Cn1nc(-c2ccco2)ccc1=O)Nc1ccc(Br)cc1,-13%,-29,5%,-1,-13%,0.6,50µM*
COc1ccccc1C(O)Cc1nc2ccccc2n1C (stereo not given),-0.4%,2,0%,-16,-64%[inhibitor],5.0,12%
CCOc1ccc(NC(=O)C2CCCN(S(=O)(=O)c3cnc[nH]3)C2)cc1 (stereo not given),-1.1%,19,8%,29,-30%,-1.4,20%
CCOC(=O)N1CCC(NC(=O)CCc2nc(-c3ccc(C)cc3)no2)CC1,3.4%,-11,1%,-8,-3%,2.0,6%
CC(C)NC(=O)N(C)C[C@H]1Oc2ccc(NC(=O)Nc3ccccc3)cc2C(=O)N([C@H](C)CO)C[C@@H]1C,0.6%,·,3%,-16,·,·,·
CN(CC(=O)Nc1ccccc1Sc1ccccc1)Cc1nc2ccccc2c(=O)[nH]1,·,21,·,5,-3%[15.4 µM],-0.9,-9%
Cc1ccc(OCC(=O)N/N=C/c2cn[nH]c2-c2ccc(Cl)c(Cl)c2)cc1,0.3%,?,3%,-10,11%,-2.6,24%
CCCCNC(=O)Nc1nnc(-c2ccccc2)o1,14µM*,6,4%,14,0%,-0.3,-1%
CC(NS(=O)(=O)c1ccccc1)C(=O)Nc1nccs1 (stereo not given),-0.8%,5,9%,?,?,-0.4,6%
CCOC(=O)c1ccc(NC(=S)N(CCCN2CCCC(C)C2)Cc2cccs2)cc1 (stereo not given),1.6%,-17,-2%,-13,19%,-4.9,13%
Cc1ccc(CN2CCSc3ccc(C(=O)NC4CCCC4)cc32)cc1,3.5%,-1,-10%,-13,?,·,3%
CCC(C)[C@H](NC(=O)N1CCn2c1nc1ccccc12)C(=O)NCCc1ccc(OC)c(OC)c1 (stereo not given in full),0.9%,?,-6%,2,-27%,2.9,7%
CC(NC(=O)[C@H](NC(=O)[C@@H]1Cc2ccccc2CN1)c1ccccc1)c1ccccc1 (stereo not given in full),-2.0%,-17,7%,·,·,1.6,5%

# (list continues)
SMILES,ClpP mod,TRPV1 potentiator,gsp antagonist,TRPML1 inh,gsp ag,Menin-MLL FL inh,Sfp PPTase inh
C/C(=C\c1cccc(Cl)c1)C(=O)c1c(C)cc(C)[nH]c1=O,-0.9%,9,-2%,·,-1%,-3.4,12%
CCN(C(=O)CCCC(=O)N(CC)c1ccccc1)c1ccccc1,0.2%,0,-6%,12,-11%,3.1,17%
O=C(NNC(=O)c1cc(Br)ccc1O)c1csc(N2CCOCC2)n1,·,9,-17%,4,0%[15.4 µM],·,·
COc1ccccc1NC(=O)CN(c1ccccc1F)S(C)(=O)=O,-1.0%,-2,-10%,2,0%,-0.9,16%
Cc1ccc(CNC(=O)NC23CC4CC(CC(C4)C2)C3)cc1,-3.7%,19,-12%,3,-14%[15.4 µM],9.9,25%
Cc1c(Cl)cccc1NC(=S)NCCc1ccccn1,·,·,13%,-3,1%[15.4 µM],0.1,-6%
CC(C)CC(C(=O)NC1CCCC1)N(Cc1ccc2c(c1)OCO2)C(=O)c1snc(C(N)=O)c1N (stereo not given),·,-4,7%,-17,9%[15.4 µM],0.4,10%
COc1ccccc1CC(=O)Nc1ccc2[nH]ncc2c1,2.7%,-19,3%,-2,-1%[15.4 µM],-6.1,7%
O=C(O)CCC(=O)Nc1cc(C(F)(F)F)cc(C(F)(F)F)c1,-8.0%,5,6%,0,-2%,1.9,23%
COc1ccc(C(CNc2ccc(S(=O)(=O)N3CCN(C)CC3)cc2[N+](=O)[O-])N(C)C)cc1 (stereo not given),-1.0%,-6,7%,4,-21%,·,·
COC(=O)Cn1c(=O)c2c(nc3n2CC(C)CN3c2ccc(C)c(C)c2)n(C)c1=O (stereo not given),-18%,-19,-10%,6,4%,-0.2,8%
c1ccc(Oc2cccc(OCCCn3cncn3)c2)cc1,-2.8%,-10,-15%,12,7%,-0.3,-12%
COc1cc(-c2nc3c(c(C)nn3-c3ccccc3)c3cc(OC)c(OC)cc23)ccc1O,7.9µM*,14,3%,-4,24%,-0.2,0%
CCOC(=O)c1cnn(-c2ncnc3c2oc2ccccc23)c1N,0.2%,14,-7%,22,-1%,2.0,19%
CCN(C(=O)COC(=O)/C=C/c1ccccc1)C1CCCCC1,-5.5%,-8,-19%,-11,22%[15.4 µM],2.5,23%
O=C(O/N=C(/c1ccccc1)c1ccncc1)c1cccc(F)c1,·,-24,-21%,-12,18%[15.4 µM],-1.0,1%
C=CCn1c(SCC(=O)Nc2ccc(O)cc2)nc2sc(CC)cc2c1=O,·,-15,-15%,-3,-19%,-3.2,1%
COc1cc(C2C3=C(CC(C)(C)CC3=O)N(C)C3=C2C(=O)CC(C)(C)C3)cc(Br)c1O,-3.1%,-12,-21%,2,-19%,-0.8,-4%
Cc1cccn2c(=O)c3cc(S(=O)(=O)c4ccccc4)c(=N)n(Cc4cccnc4)c3nc12,·,3,10%,30,9%[15.4 µM],·,2%
Cc1ccccc1NC(=O)c1cccc(C(=O)Nc2ccccc2C)c1,·,·,8%,31,-5%[15.4 µM],·,·
COc1cccc(NC(=O)c2ccc(NC(=O)C(C)C)cc2)c1,·,-8,-12%,-7,8%[15.4 µM],-0.3,3%
O=C(O)CCN1C(=O)/C(=C2\C(=O)N(Cc3ccccc3Cl)c3ccccc32)SC1=S,·,-12,·,·,·,?,-16%
COc1ccc2ccccc2c1C(O)c1nccn1C (stereo not given),-19%,18,9%,-12,13%,?,-4%
CCOC(=O)c1oc2ccccc2c1COC(=O)CNC(=O)c1ccccc1,-18%,1,-2%,7,?,·,10%
CCOc1ccccc1C(=O)NCC(=O)OCC(=O)c1c(N)n(C)c(=O)n(C)c1=O,-2.8%,·,4%,-1,-14%,·,·

# The results go on.
SMILES,ClpP mod,TRPV1 potentiator,gsp antagonist,TRPML1 inh,gsp ag,Menin-MLL FL inh,Sfp PPTase inh
O=C(O)c1ccc(S(=O)(=O)N(Cc2ccccc2)Cc2ccccc2)cc1,-0.9%,10,0%,-10,21%,2.4,6%
COc1ccc(NC(=O)C(C)SCc2ccccc2)cc1OC (stereo not given),-0.5%,-35,4%,7,19%,2.6,-3%
CN(CC(=O)N1CCN(Cc2ccccc2)CC1)C(=O)Cc1cccc2ccccc12,-20%,24,-10%,-7,-6%,·,·
COc1ccc(-n2c(=S)[nH]c3cc(C(=O)NCc4ccccc4OC)ccc3c2=O)c(OC)c1,·,5,-35%,-6,3%[15.4 µM],-1.4,-13%
CN(C)C(=O)/C=C\c1cn(-c2ccccc2)nc1-c1ccc2c(c1)OCCO2,·,-9,?,-7,22%,11,-17%
CC(=NCCN1CCN(C(C)=C2C(=O)c3ccccc3C2=O)CC1)C1=C(O)CC(C)(C)CC1=O,1.3%,-8,-4%,36,-33%[inhibitor],8.8,9%
O=C(CSc1nc2[nH]ncc2c(=O)[nH]1)NCc1ccccc1,1.7%,5,16%,24,2%,2.0,8%
O=C(CN1CCCC1)Nc1c(C(=O)C2CC2)oc2ccccc12,1.0%,-5,3%,6,-4%[15.4 µM],-2.2,-13%
CCCC(C(=O)N1CCOCC1)N1C(=O)C2C3C=CC(C3)C2C1=O (stereo not given),-4.2%,-7,10%,-14,17%,-0.3,11%
CC(=O)Nc1cccc(NC(=O)c2cc3ccccc3o2)c1,2.3%,-30,-21%,-4,13%,4.9,1%
O=C(CSc1nncc2ccccc12)N1CCCCC1,·,4,0%,-2,19%,4.6,10%
O=C(Nc1cccc(F)c1)OC(CN1CCCCC1)C(F)(F)F (stereo not given),-0.3%,-3,-5%[15.4 µM],14,4%,-1.5,18%
CCOCCCNC(=O)/C(C#N)=C/c1ccc([N+](=O)[O-])o1,·,-9,-12%,6,1%[15.4 µM],-0.8,1%
Cc1cc(Cl)ccc1OCC(=O)OCC(=O)NC1CCCC1,-1.9%,-7,-1%,-15,-46%[inhibitor],·,·
C=C(C)C(=O)N1CC2(CC(c3cccc(NC(=O)CC)c3)=NO2)C[C@H]1C(N)=O (stereo not given in full),-7.4%,28,15%,-2,-4%,-0.8,2%
O=C(Cn1cc(Cl)c([N+](=O)[O-])n1)NCCC1=CCCCC1,·,11,-3%,0,-2%,2.7,8%
